# AF4-AF9 inh – MLL-AF4/AF9 protein interaction inhibition | 0.47% of 350,000 active | inhibition, % at 10 µM | AlphaScreen, biotin-AF4 peptide binding to FLAG-AF9 | P42568;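 active = every replicate reaching a set inhibition limit, whatever the replicate mean, cut at about 25% in these data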;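 also: 0% = plate neutral control median and 100% = total signal loss; the record names both 10 and 1 µM as test concentration; the first replicate is given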
# Target sequence (P42568 whole entry, looked up): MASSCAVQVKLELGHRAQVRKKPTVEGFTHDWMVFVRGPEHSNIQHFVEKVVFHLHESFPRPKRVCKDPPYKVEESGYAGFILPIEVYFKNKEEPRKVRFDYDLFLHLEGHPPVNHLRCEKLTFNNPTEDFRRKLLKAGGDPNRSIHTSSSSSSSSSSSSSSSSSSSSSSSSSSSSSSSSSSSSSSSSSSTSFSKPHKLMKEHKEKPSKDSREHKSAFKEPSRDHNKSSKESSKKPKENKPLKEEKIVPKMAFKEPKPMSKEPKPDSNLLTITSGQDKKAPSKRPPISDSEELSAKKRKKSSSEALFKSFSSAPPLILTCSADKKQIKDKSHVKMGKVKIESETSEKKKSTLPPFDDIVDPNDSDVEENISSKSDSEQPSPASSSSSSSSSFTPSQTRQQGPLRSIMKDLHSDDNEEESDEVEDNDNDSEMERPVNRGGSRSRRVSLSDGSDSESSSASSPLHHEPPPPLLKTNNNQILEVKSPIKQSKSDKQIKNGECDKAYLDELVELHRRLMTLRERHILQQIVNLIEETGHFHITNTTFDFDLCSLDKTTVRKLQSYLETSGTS
# * marks the source's active call; other numbers are inactive results; & = joins results of further samples. Some of the compounds tested. The share of hits here may be higher or lower than overall.
SMILES,AF4-AF9 inh
COc1ccc2c3c([nH]c2c1)[C@@H](CO)N(Cc1ccccc1F)CC31CN(C(=O)C2CC2)C1,2.0
COc1ccc(-c2ccc3c(c2)O[C@H](CN(C)Cc2ccccc2C(=O)O)[C@H](C)CN([C@H](C)CO)S3(=O)=O)cc1,15
COc1ccc2c3c(n(C)c2c1)[C@H](CO)N(C)CC31CCN(C(=O)c2ccc3c(c2)OCO3)CC1,-0.1
C[C@H]1CN([C@@H](C)CO)C(=O)c2cc(NC(=O)Nc3ccc(F)cc3)ccc2O[C@H]1CN(C)S(=O)(=O)c1ccccc1,1.4
CN1CCN(C(=O)C[C@@H]2C[C@H]3c4cc(NS(C)(=O)=O)ccc4O[C@H]3[C@@H](CO)O2)CC1,-0.5
O=C(Nc1ccccc1F)N[C@H]1CC[C@H](CCNC(=O)C2CCC2)O[C@H]1CO,-0.8
COCC(=O)Nc1ccc2c(c1)C(=O)N(C)C[C@@H](OC)[C@H](C)CN(C)[C@@H](C)CO2,-0.4
C[C@@H]1CN([C@H](C)CO)C(=O)c2cc(C#Cc3ccc(F)cc3)cnc2O[C@@H]1CN(C)Cc1ccccn1,-0.6
COc1ccccc1C(=O)Nc1ccc2c(c1)C(=O)N(C)C[C@@H](OC)[C@@H](C)CN[C@H](C)CO2,-3.8
N#C[C@@H]1[C@H](c2ccccc2)[C@@H](CO)N1C(=O)c1ccc2c(c1)OCO2,-0.7
Nc1ccn([C@@H]2O[C@H](C(=O)N[C@H](COC=O)Cc3ccccc3)[C@@H](O)[C@H]2O)c(=O)n1,-2.4
COc1ccc(CCN2C(=O)COc3ccccc3C2C(=O)NCc2ccccc2)cc1OC (centres undefined),0.3
O=C(Nc1ccc(-c2ccccc2)cc1)[C@@H]1[C@@H](CO)[C@@H]2Cn3c(cccc3=O)[C@H]1N2Cc1cccnc1,2.2
C[C@@H]1CCCCO[C@H](CN(C)C(=O)Nc2ccc(F)cc2)[C@H](C)CN([C@H](C)CO)C(=O)c2cc(NS(C)(=O)=O)ccc2O1,-0.2
CC1(C(=O)NS(=O)(=O)Cc2cccc(Cl)c2)CCN1C(=O)CC1CCCC1 (centres undefined),-1.4
C[C@@H]1CN([C@@H](C)CO)C(=O)c2cc(NC(=O)CCCCCC(=O)Nc3ccccc3N)ccc2O[C@H]1CN(C)C(=O)Nc1ccc(F)cc1,0.5
COc1ccc(S(=O)(=O)N2CC[C@@H]3[C@H]2c2cc(-c4ccc(C#N)cc4)ccc2N[C@@H]3CO)cc1,6.7
Cc1ccccc1NC(=O)Nc1nnc([C@@H]2C[C@H](O)[C@@H](CO)O2)s1,-7.3
C[C@@H]1CN([C@H](C)CO)C(=O)c2cc(NC(=O)Nc3ccccc3)ccc2O[C@@H]1CN(C)C,-2.1
CC1(C(=O)NS(=O)(=O)c2ccccc2)CCN1C(=O)C1(c2ccc(Cl)cc2)CC1 (centres undefined),-6.4
CS(=O)(=O)c1ccc(Nc2nc(C(N)Cc3ccc(C(F)(F)F)cc3)cs2)cc1 (centres undefined),5.5
CN1CCN(C(=O)C[C@@H]2CC[C@@H]3[C@@H](COc4ccc(NC(=O)C5CC5)cc4C(=O)N3C)O2)CC1,-0.4
O=C(Nc1cccc(Cl)c1)N[C@@H]1CC[C@@H](CCn2cc(Cc3ccccc3)nn2)O[C@@H]1CO,1.5
CC(C)C#Cc1cnc2c(c1)C(=O)N([C@H](C)CO)C[C@H](C)[C@H](CN(C)C(=O)Nc1cccc(F)c1)O2,1.8
C[C@@H]1CN([C@@H](C)CO)S(=O)(=O)c2ccc(C3=CCCC3)cc2O[C@H]1CN(C)Cc1cccnc1,-5.1

# Continued:
SMILES,AF4-AF9 inh
COCC(=O)N(C)C[C@@H]1Oc2cc(C#C[C@H](C)O)ccc2S(=O)(=O)N([C@@H](C)CO)C[C@H]1C,-2.8
COc1ccc(C#Cc2ccc([C@H]3[C@H](CO)N4C(=O)CN(C(=O)c5ccc(F)cc5)C[C@@H]34)cc2)cc1,0.7
O=C(c1cccnc1)N1CC(=O)N2[C@H](C1)[C@@H](c1ccc(-c3ccccc3F)cc1)[C@@H]2CO,-0.1
CC(C)NC(=O)N1[C@@H]2CNC[C@H]1C2c1ccc(/C=C/c2ccccc2)cc1 (some centres undefined),2.4&14
CCCC(O)C#Cc1cnc2c(c1)C(=O)N([C@H](C)CO)C[C@H](C)[C@H](CN(C)S(=O)(=O)c1ccccc1)O2 (some centres undefined),-3.7
CC(C)C#Cc1ccc2c(c1)O[C@@H](CN(C)C(=O)Cc1ccccn1)[C@@H](C)CN([C@@H](C)CO)S2(=O)=O,-0.9
O=C(c1cccnc1)N1CC(=O)N2[C@H](C1)[C@@H](c1ccc(/C=C/c3ccccc3)cc1)[C@@H]2CO,9.1
Cc1ccc(CN2CCC2(C)C(=O)NC2CCc3ccccc32)cc1 (centres undefined),-1.5
C[C@@H]1CCCCO[C@H](CN(C)Cc2ccc(C(=O)O)cc2)[C@H](C)CN([C@@H](C)CO)C(=O)c2cc(NC(=O)c3ccccc3)ccc2O1,-2.9
C[C@@H]1CN([C@H](C)CO)C(=O)c2cccc(NC(=O)c3ccc(-c4nccs4)cc3)c2O[C@@H]1CN(C)C(=O)Nc1ccccc1,-0.6
CCc1nc2c(OCc3ccc(C(=O)OC)cc3)cccn2c1N(C)C(=O)c1ccc(OC)cc1,5.6
C[C@@H]1CN([C@H](C)CO)C(=O)c2cccc(NC(=O)CCCCCC(=O)Nc3ccccc3N)c2O[C@H]1CN(C)Cc1ccc(Oc2ccccc2)cc1,-1.7
COc1ccc(-c2ccc([C@H]3[C@H]4CN(C(=O)C5CC5)CC(=O)N4[C@H]3CO)cc2)cc1,-1.7
CC1(C(=O)NS(=O)(=O)c2ccc(Cl)cc2)CCN1C(=O)C1(c2ccc(Cl)cc2)CCC1 (centres undefined),-1.2
CS(=O)(=O)Nc1ccc2c(c1)[C@H]1C[C@H](CC(=O)NCc3ccccc3)O[C@H](CO)[C@H]1O2,-1.7
C=CCn1c(C(C)n2c(-c3cnccn3)nc3ccccc32)nc2ccccc21 (centres undefined),-2.8
C[C@H](CO)N1C[C@H](C)[C@H](CN(C)C(=O)NC2CCCCC2)OCc2ccccc2-c2ccccc2C1=O,-4.0
COc1ccc2c3c([nH]c2c1)[C@@H](CO)N(C(=O)Nc1cccc(F)c1)CC31CCN(CC2CC2)CC1,25*
N#C[C@@H]1N[C@H](CO)[C@H]1c1ccc(-c2ccccc2F)cc1,-1.5
C[C@H]1CN([C@@H](C)CO)C(=O)c2cccc(NC(=O)C3CC3)c2O[C@@H]1CN(C)Cc1ccc(-c2ccccc2)cc1,2.5
CCc1ccc2c(c1)NC(=O)C2(C)Cc1ccccc1OC (centres undefined),2.7
C[C@@H]1CN([C@H](C)CO)C(=O)Cc2cc(NC(=O)NC3CCCCC3)ccc2O[C@@H]1CN(C)C(=O)Nc1ccccc1,-3.9
C[C@@H]1CN([C@@H](C)CO)S(=O)(=O)c2ccc(-c3cccnc3)cc2O[C@H]1CN(C)C,-2.8
C[C@@H]1CCCCO[C@H](CN(C)C(=O)Nc2ccc(F)cc2)[C@@H](C)CN([C@H](C)CO)C(=O)c2cc(NS(=O)(=O)c3cccs3)ccc2O1,-13
Fc1ccc(Nc2nnc(-c3ccncc3)s2)cc1Cl,1.8

# AF4-AF9 inh: what is marked active above
SMILES,AF4-AF9 inh
COc1ccc2c3c([nH]c2c1)[C@@H](CO)N(C(=O)Nc1cccc(F)c1)CC31CCN(CC2CC2)CC1,25*

# Exported with bars between the fields: 5 of the compounds above
canonical_smiles | AF4-AF9 inh
CC1(C(=O)NS(=O)(=O)c2ccc(Cl)cc2)CCN1C(=O)C1(c2ccc(Cl)cc2)CCC1 (centres undefined) | -1.2
CS(=O)(=O)Nc1ccc2c(c1)[C@H]1C[C@H](CC(=O)NCc3ccccc3)O[C@H](CO)[C@H]1O2 | -1.7
C=CCn1c(C(C)n2c(-c3cnccn3)nc3ccccc32)nc2ccccc21 (centres undefined) | -2.8
C[C@H](CO)N1C[C@H](C)[C@H](CN(C)C(=O)NC2CCCCC2)OCc2ccccc2-c2ccccc2C1=O | -4.0
COc1ccc2c3c([nH]c2c1)[C@@H](CO)N(C(=O)Nc1cccc(F)c1)CC31CCN(CC2CC2)CC1 | 25*

# New compounds follow:
SMILES,AF4-AF9 inh
O=C(Nc1cccc(F)c1)N1CC(=O)N2[C@H](CO)[C@H](c3ccc(-c4cccc(F)c4)cc3)[C@@H]2C1,2.2
COC(=O)[C@@]12C[C@@H](CC(=O)NCCCN3CCCC3=O)C(=O)N(Cc3ccc4c(c3)OCO4)C1=CCC(C)(C)C2,2.0
C[C@H](CO)N1C[C@H](C)[C@H](CN(C)Cc2cccnc2)OCc2cn(nn2)CCCC1=O,-0.1
C[C@@H]1CN([C@@H](C)CO)C(=O)c2cc(NC(=O)C3CCCCC3)ccc2O[C@H]1CN(C)Cc1ccc(C(=O)O)cc1,-3.7
C[C@@H]1CN([C@@H](C)CO)C(=O)c2cc(NS(=O)(=O)c3cccs3)ccc2O[C@@H](C)CCCCO[C@H]1CN(C)C(=O)c1ccccc1,-0.8
OC[C@H]1[C@H](c2ccc(-c3ccccc3)cc2)[C@H]2CN(CCC(F)(F)F)CCCCN21,-1.8
Cc1noc(C)c1NC(=O)N(C)C[C@H]1Oc2ccc(NC(=O)C3CC3)cc2C(=O)N([C@H](C)CO)C[C@H]1C,-1.0
O=S(=O)(c1ccc(F)cc1)N1C[C@@H]2[C@H](c3ccccc31)[C@H](CO)N2Cc1ccccc1Cl,1.2
O=C(Nc1ccccc1)N1CCCCN2[C@H](C1)[C@H](c1ccc(Br)cc1)[C@@H]2CO,-5.8
N#C[C@H]1[C@H](c2ccc(-c3cccc(F)c3)cc2)[C@@H](CO)N1C(=O)CN1CCOCC1,1.2
COc1cccc(CN2CC3(CCN(S(C)(=O)=O)CC3)c3c(n(C)c4cc(OC)ccc34)[C@@H]2CO)c1,1.2
CO[C@@H]1CN(C)C(=O)c2cc(NS(=O)(=O)c3ccc(Cl)cc3)ccc2OC[C@H](C)N(C)C[C@H]1C,0.3
CC(C)C#Cc1ccc2c(c1)O[C@@H](CN(C)C(=O)C1CC1)[C@@H](C)CN([C@H](C)CO)S2(=O)=O,-0.5
CC(C)NC(=O)N(C)C[C@@H]1Oc2ccc(NC(=O)c3ccncc3)cc2CC(=O)N([C@@H](C)CO)C[C@@H]1C,-1.9
N#C[C@H]1[C@H](c2ccccc2-c2ccc(F)cc2)[C@H](CO)N1C(=O)Cc1ccccc1,-1.1
CCS(=O)(=O)N1CC(=O)N2[C@H](CO)[C@@H](c3ccc(C#CCC4CCCC4)cc3)[C@@H]2C1,7.5
CCCN(C)C[C@H]1OCCCC[C@@H](C)Oc2ccc(NS(C)(=O)=O)cc2C(=O)N([C@@H](C)CO)C[C@H]1C,1.7
COc1ccc(NC(=O)Nc2ccc3c(c2)C(=O)N([C@H](C)CO)C[C@H](C)[C@@H](CN(C)S(C)(=O)=O)OCCCC[C@H](C)O3)cc1,-2.0
C[C@@H](NC(=O)C[C@H]1CC[C@H](NC(=O)C2CCC2)[C@H](CO)O1)c1ccccc1,-0.5
C[C@@H]1CN([C@@H](C)CO)C(=O)c2cccc(NC(=O)NC3CCCCC3)c2O[C@H]1CN(C)Cc1ccc(C(F)(F)F)cc1,1.2
CCc1nc2c(OCc3ccccc3C)cccn2c1N(C)C(=O)c1ccco1,2.1
Cc1c(C(=O)N(C)Cc2ccc(F)cc2)sc(=O)n1Cc1ccccc1C#N,1.4
CNC(=O)C[C@H]1CC[C@H]2[C@@H](COc3ccc(NC(=O)Nc4ccccc4F)cc3C(=O)N2C)O1,-2.4
CCOC(=O)c1ccccc1NC(=O)COC(=O)c1ccc(OCC(=O)N2CCOCC2)c(OCC)c1,-1.6
CN1CCN(C(=O)[C@H]2[C@H](CO)[C@H]3Cn4c(cccc4=O)[C@@H]2N3S(=O)(=O)c2ccccc2F)CC1,0.4

# Some values from above:
# `COC(=O)[C@@]12C[C@@H](CC(=O)NCCCN3CCCC3=O)C(=O)N(Cc3ccc4c(c3)OCO4)C1=CCC(C)(C)C2` in AF4-AF9 inh reads 2.0
# `N#C[C@@H]1N[C@H](CO)[C@H]1c1ccc(-c2ccccc2F)cc1` in AF4-AF9 inh reads -1.5

# Other records follow.
SMILES,AF4-AF9 inh
COc1cccc(-c2ccc3n(c2=O)C[C@@H]2[C@@H](CO)[C@H](C(=O)N(C)C)[C@H]3N2Cc2cncnc2)c1,-1.4
O=S(=O)(c1ccccc1F)N1CC[C@@H]2[C@H](CO)Nc3ccc(-c4cccc(F)c4)cc3[C@@H]21,6.7
O=C(Nc1ccccc1)N[C@H]1CC[C@@H](CCNS(=O)(=O)c2cccc(F)c2)O[C@H]1CO,0.4
C[C@H]1CN([C@@H](C)CO)C(=O)c2cccc(NC(=O)c3ccc(-c4nccs4)cc3)c2O[C@@H]1CN(C)C(=O)Nc1ccccc1,-2.2
CC(=O)N(C)C[C@@H]1Oc2cc(-c3cccc(C#N)c3)ccc2S(=O)(=O)N([C@@H](C)CO)C[C@@H]1C,-2.0
CCCCCC(=O)N1C[C@H](O)[C@@H](n2cc(-c3ccc(F)cc3)nn2)C[C@@H]1c1ccc(Cl)cc1,1.0
O=C(Nc1ccccc1)N1CCCCN2[C@H](CO)[C@H](c3ccc(C#Cc4ccccc4)cc3)[C@@H]2C1,-5.9
CCNC(=O)Nc1ccc2c(c1)C(=O)N(C)[C@H]1CC[C@H](CC(=O)NCc3ccccc3F)O[C@H]1CO2,-1.1
O=C(C[C@H]1C=C[C@@H](NC(=O)Nc2cc(F)ccc2F)[C@@H](CO)O1)Nc1ccc(-c2ccccc2)cc1,-14
O=C(C[C@H]1C[C@H]2c3cc(NC(=O)C4CCOCC4)ccc3O[C@H]2[C@@H](CO)O1)NCC1CC1,-0.6
OC(c1ccc(Cl)c(Cl)c1)c1ncc(-c2ccccc2C(F)(F)F)[nH]1 (centres undefined),0.9

# Looked up by compound from the list above, 2 records:
SMILES,AF4-AF9 inh
O=C(Nc1ccccc1)N1CCCCN2[C@H](CO)[C@H](c3ccc(C#Cc4ccccc4)cc3)[C@@H]2C1,-5.9
O=C(Nc1ccccc1)N[C@H]1CC[C@@H](CCNS(=O)(=O)c2cccc(F)c2)O[C@H]1CO,0.4

# Screens from PubChem BioAssay.
